Bioassay records: PubChem, National Center for Advancing Translational Sciences (NCATS)
VDR inh = inhibitors of human vitamin D receptor; P11473; VDR-SRC2-3 peptide fluorescence polarization, 2 h; Potency, µM, without a hit: max response, negative = inhibition, hits mostly inhibitors; 0.93% of 400,000 active; active = well fitted inhibition curve with a large enough effect; inconclusive = small, poorly fitted or top-dose-only effect, or another doubt; inactive = no such curve, though single readings can be large or run the other way; note: series mostly up to about 120 µM
Target sequence (P11473 whole entry, looked up): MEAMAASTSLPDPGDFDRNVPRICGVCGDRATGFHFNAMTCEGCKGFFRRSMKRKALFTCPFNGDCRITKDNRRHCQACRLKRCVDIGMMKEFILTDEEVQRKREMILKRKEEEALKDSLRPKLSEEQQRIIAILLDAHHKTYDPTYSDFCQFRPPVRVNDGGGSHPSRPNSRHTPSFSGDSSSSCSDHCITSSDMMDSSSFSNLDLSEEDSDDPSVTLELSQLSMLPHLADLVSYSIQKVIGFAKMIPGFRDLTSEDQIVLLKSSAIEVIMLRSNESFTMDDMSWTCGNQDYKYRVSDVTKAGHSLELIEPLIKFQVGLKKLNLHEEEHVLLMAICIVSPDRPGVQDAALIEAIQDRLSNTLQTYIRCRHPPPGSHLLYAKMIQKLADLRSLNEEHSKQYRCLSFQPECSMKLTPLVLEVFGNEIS
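After 23 nl compound addition and a short centrifugation, plates sat for 2 hours at ambient temperature; polarization of fluorescence then indicated loss of VDR binding to peptide SRC2-3.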
An asterisk follows results filed as active; ? = inconclusive. % is set by controls: 0 for no effect and ±100 for the full control effect; potency is the fitted concentration of half-maximal effect. A portion of the library; the hit share may differ from the screen's.

| structure | VDR inh |
| --- | --- |
| CN(CCc1ccccn1)S(=O)(=O)c1ccc(F)cc1 | -7% |
| COC(=O)c1cc2ccccc2c(-c2c(O)ccc3ccccc23)c1O | -8% |
| Brc1ccc(Oc2ncc(CN3CCOCC3)s2)cc1 | -3% |
| FC(F)(F)c1ccnc(Sc2n[nH]c(C(F)(F)F)n2)c1 | -5% |
| Cc1c(/C(O)=C2\C(=O)C(=O)N(CCCN(C)C)C2c2ccco2)cnn1-c1ccccc1 (stereo not given) | -6% |
| Cc1cc(C)nc(NNS(=O)(=O)c2ccc(Cl)cc2)n1 | 8% |
| Cc1[nH]n(-c2ccccc2)c(=O)c1C=Nc1ccc(S(=O)(=O)N=C(N)N)cc1 | -10% |
| Cc1ccc(CSc2ccc(S(=O)(=O)N3CCCC3)cn2)cc1 | -24% |
| O=C(Nc1ccc(Cl)c([N+](=O)[O-])c1)c1ccc(NCCCN2CCOCC2)c([N+](=O)[O-])c1 | 14% |
| CCOc1ccc(Nc2oc(-c3cccc(Cl)c3)nc2C#N)cc1 | 2% |
| O=[N+]([O-])c1ccc(/C=N/n2cnc3ccccc32)s1 | -3% |
| CCN(CC)C(=O)Cn1nc(-c2ccccc2O)nc1SCC(=O)Nc1ccc(OC)cc1 | -2% |
| Cc1cccc(Nc2ccc([N+](=O)[O-])cn2)c1 | -13% |
| Cc1ccc2c(c1)N(CC(=O)NCC1CCCO1)C(=O)CO2 (stereo not given) | -5% |
| CCC(=O)Nc1cccc(C(=O)OCc2cccc([N+](=O)[O-])c2)c1 | -19% |
| Cc1cc2c(=O)n(C)c(SCC(=O)NC3CCCC3)nc2s1 | -4% |
| COc1ccc(S(=O)(=O)NCc2ccccn2)cc1 | -25% |
| CN(C)CCCN(C(=O)c1cc2ccccc2oc1=O)c1nc2ccc(F)cc2s1 | -9% |
| NC(=O)CSc1nnc(-c2ccc(S(=O)(=O)N3CCCC3)cc2)n1CC1CCCO1 (stereo not given) | 9% |
| CC1CCCN(Cc2ccc(OCc3ccccc3)cc2)C1 (stereo not given) | -19% |
| Cc1cccn2c(=O)c3cc(C(=O)NC4CCCCC4)c(=N)n(Cc4ccccc4)c3nc12 | -10% |
| Nc1ccc(Sc2cnn(-c3ccccc3)c(=O)c2Cl)cc1 | 21% |
| O=C(CSc1nc2c(cnn2-c2ccccc2)c(=O)[nH]1)N1N=C(c2cccs2)CC1c1ccc(F)cc1 (stereo not given) | 2% |
| Nc1ccc2nc(C(F)(F)F)[nH]c2c1 | -4% |
| COc1ccc([C@@H]2Sc3ccccc3NC(=O)[C@@H]2O)cc1 | 1% |
| COc1ccccc1OCCCn1c(-c2ccc(Cl)cc2)nc2ccccc2c1=O | -1% |
| O=c1[nH]cnc2c1ccn2C1OC(CO)C(O)C1O (stereo not given) | -20% |
| CN(CC(=O)Nc1ccccc1N1CCOCC1)CC(=O)Nc1ccc(F)c(F)c1F | -6% |
| CN(C)S(=O)(=O)c1cccc(NC(=O)COC(=O)CNC(=O)c2cccc([N+](=O)[O-])c2)c1 | 7% |
| Cc1ccc(C)c(NC(=O)CCN2CCN(C)CC2)c1 | -11% |

Arranged by value in VDR inh (high to low): three of the compounds above.
| structure | VDR inh |
| --- | --- |
| NC(=O)CSc1nnc(-c2ccc(S(=O)(=O)N3CCCC3)cc2)n1CC1CCCO1 (stereo not given) | 9% |
| CN(C)S(=O)(=O)c1cccc(NC(=O)COC(=O)CNC(=O)c2cccc([N+](=O)[O-])c2)c1 | 7% |
| CC1CCCN(Cc2ccc(OCc3ccccc3)cc2)C1 (stereo not given) | -19% |

Back to the main list with the two entries that preceded the break.
| structure | VDR inh |
| --- | --- |
| CN(C)S(=O)(=O)c1cccc(NC(=O)COC(=O)CNC(=O)c2cccc([N+](=O)[O-])c2)c1 | 7% |
| Cc1ccc(C)c(NC(=O)CCN2CCN(C)CC2)c1 | -11% |
| Cc1cccc(C(=O)N2CCc3cc(CNC(=O)c4cc5ccccc5[nH]4)ccc32)c1 | 8% |
| Cc1cccc(NC(=O)c2ccccc2O)c1C | 0% |
| CNC(=O)c1c[nH]n2c(=O)c(Cc3ccccc3F)c(C)nc12 | -12% |
| Cc1ccc(S(=O)(=O)N(C)CC(=O)Nc2cc(C)ccn2)cc1 | -5% |
| CN1CCN(c2ccc(NC(=S)NC(=O)c3cccc4ccccc34)cc2)CC1 | -19% |
| COCC(=O)Nc1ccc(S(=O)(=O)NCCc2ccccc2)cc1 | 3% |
| CCOC(=O)c1c(C)[nH]c(C)c1C(=O)COC(=O)c1nc2nccc(C)n2n1 | -9% |
| O=C(CCn1cccc1)Nc1nccs1 | -1% |
| COC(=O)CSc1cccc2c1C(=O)CC2c1ccccc1 (stereo not given) | -4% |
| Cc1cc(C)n2nc(SCCCC(=O)c3ccc(F)cc3)nc2n1 | -14% |
| COc1ccc(CNC(=O)[C@H](C)NC(=O)C2CCN(S(=O)(=O)c3ccccc3)CC2)cc1 | 2% |
| O=C(N/N=C/c1c(Nc2cccc(C(F)(F)F)c2)nc2ccccn2c1=O)c1ccccc1[N+](=O)[O-] | -10% |
| Cc1ccc(-c2nc(SCC(=O)NCC3CCCO3)c(-c3ccc(Cl)cc3)[nH]2)cc1 (stereo not given) | -18% |
| Cc1c(C(=O)NCc2ccccc2)sc2nc3n(c(=O)c12)CCCCC3 | 2% |
| COc1ccc(C(=O)CSc2nnc(C3CCCCC3)n2N)c(OC)c1 | 4% |
| COc1ccccc1S(=O)(=O)Nc1ccc2cn[nH]c2c1 | 0% |
| Cn1c(=O)c2c(nc(SCC(=O)NCc3ccc4c(c3)OCO4)n2Cc2ccccc2)n(C)c1=O | 3% |
| O=C(CN1CCN(S(=O)(=O)c2ccc(F)cc2)CC1)Nc1ccc(Cl)c(C(F)(F)F)c1 | -12% |
| Cc1cc(C)c(C(=O)NNC(=O)c2cccnc2)c(C)c1 | -1% |
| O=C(NCCc1ccccc1)NC1CCCCC1 | -3% |
| Cc1cc(C)cc(NC(=O)CSc2nc(N)c(NC(=O)c3cccs3)c(=O)[nH]2)c1 | -18% |
| COc1cccc(NC(=O)COC(=O)/C=C/c2c(C)nn(-c3ccccc3)c2C)c1 | -21% |
| Nc1nonc1-c1nc2ccccc2n1CC(=O)N/N=C/c1ccc(-c2ccccc2C(=O)O)o1 | 9% |
| CCN(CC)C(=O)COc1cc(C)cc2oc(=O)cc(-c3ccccc3)c12 | 8% |
| O=C(CN(Cc1ccccc1)S(=O)(=O)c1ccc(S(=O)(=O)N2CCOCC2)cc1)Nc1ccccc1 | 4% |
| OC1NC(=S)N(c2ccccc2)C1O (stereo not given) | -17% |
| Cc1ccc(-n2c(SCC(=O)NCC3CCCO3)nnc2-c2ccoc2C)cc1 (stereo not given) | 7% |
| CCCCN(C(=O)c1nn(C)c(=O)c2ccccc12)c1c(N)n(CC(C)C)c(=O)[nH]c1=O | -14% |
| CCCn1cc(S(=O)(=O)c2ccc(OC)cc2)c(=O)c2cc(OCC)ccc21 | 2% |
| COc1ccc(S(=O)(=O)Nc2ccc3c(c2)n(C)c(=O)n3C)cc1F | -17% |

2 entries drawn at random from those above, as already listed:
| structure | VDR inh |
| --- | --- |
| Nc1nonc1-c1nc2ccccc2n1CC(=O)N/N=C/c1ccc(-c2ccccc2C(=O)O)o1 | 9% |
| COc1ccc(C(=O)CSc2nnc(C3CCCCC3)n2N)c(OC)c1 | 4% |

Further structures:
| structure | VDR inh |
| --- | --- |
| CCn1nnc2cc(C(=O)Nc3ccc(Cl)cc3C)ccc21 | 16% |
| COc1ccc(-n2cnnc2SCCC#N)cc1 | -7% |
| CCc1cnc2c(c1SCC(=O)Nc1ccc(OC)c(OC)c1)c(=O)n(C)c(=O)n2C | 8% |
| CC1CCN(CCc2nc3cc(NC(=O)C(C)C)ccc3n2C)CC1 | 10% |
| CC(C)[C@H](NC(=O)[C@@H]1CSC2c3ccccc3C(=O)N21)C(=O)NCC1CCCO1 (stereo not given in full) | 1% |
| CCOC(=O)c1cccc(NC(=O)CCc2nnc3ccc(N4CCOCC4)nn23)c1 | 2% |
| Cc1cn(C)c(CC(=O)N2CCN(c3cccc(Cl)c3)CC2)c1C(=O)O | 9% |
| Cc1csc(=O)n1CC(=O)OCc1nnc(-c2ccccc2)o1 | -17% |
| C=CCC1(CC=C)CCCN1C(=O)C1CCC(=O)N(CCc2ccccc2)C1 (stereo not given) | 0% |
| CCOc1ccc(S(=O)(=O)Nc2ccc(S(=O)(=O)N3CCCCC3)cc2)cc1 | -18% |
| Cc1ccccc1NC(=O)Cc1c(O)c2ccccc2[nH]c1=O | 9% |
| O=C(NCC1COc2ccccc2O1)c1cccc(S(=O)(=O)N2CCN(c3ccccc3)CC2)c1 (stereo not given) | -2% |
| Cc1cc2cc(CN(Cc3ccco3)C(=O)C3CCCCC3)c(=O)[nH]c2cc1C | -3% |
| COCCn1c(SCC(=O)/C=C2\N(C)c3ccccc3C2(C)C)nnc1-c1ccncc1 | 25% |
| Cc1cccc(-c2noc(CN(C(=O)COc3ccc(C(C)C)cc3)C(C)C)n2)c1 | 0% |
| COC(=O)[C@H](CCSC)NC(=O)N1CCN(Cc2ccccc2)CC1 | -13% |
| CNC(=O)C(=O)Nc1ccc2c(c1)N(S(=O)(=O)c1cccs1)CCC2 | -23% |
| COc1ccc(CCNC(=O)c2ccc3c(c2)N(Cc2ccc(F)cc2)CCS3)c(OC)c1 | -17% |
| CCc1ccc(N(C(=O)Cc2cccs2)C(C(=O)NC2CCCCC2)c2cn(C)nc2C)cc1 (stereo not given) | -5% |
| CCOC(=O)CCC(=O)O[C@H]1[C@H](O[C@@H]2[C@@H](C)[C@H](O[C@H]3C[C@@](C)(OC)[C@@H](O)[C@H](C)O3)[C@@H](C)C(=O)O[C@H](CC)[C@@](C)(O)[C@H](O)[C@@H](C)C(=O)[C@H](C)C[C@@]2(C)O)O[C@H](C)C[C@@H]1N(C)C | -9% |
| CSCCC(NC(=O)c1ccccc1Cl)C(=O)NCCOc1ccccc1 (stereo not given) | 5% |
| S=C(NCc1ccc(Cl)cc1Cl)Nc1ccccc1 | 7% |
| CN(c1ccccc1)S(=O)(=O)c1cccc(NC(=O)c2cc(=O)c3ccccc3o2)c1 | 22% |
| CCC(=O)N1c2ccc(S(=O)(=O)N3CCN(c4cc(C)ccc4C)CC3)cc2CC1C (stereo not given) | -1% |
| COC(=O)c1sccc1NC(=O)c1c(Cl)cccc1Cl | -22% |
| CCOC(=O)Nc1cccnc1Sc1ccc(Cl)cc1 | -3% |
| CCc1nnc(NC(=O)CSc2nccn2Cc2ccc(C)cc2)s1 | 8% |
| Cc1cc(C)c(NC(=O)Cn2c(=O)n(CCC(C)C)c(=O)c3cccnc32)c(C)c1 | 7% |
| Fc1ccc2c(c1)C(c1ccncc1)=NNC(c1cccnc1)=N2 | -7% |
| O=c1[nH]c2ccccc2c2nc(-c3cccc(S(=O)(=O)N4CCCC4)c3)nn12 | 24% |

Nothing new here: entries from further up.
| structure | VDR inh |
| --- | --- |
| CCn1nnc2cc(C(=O)Nc3ccc(Cl)cc3C)ccc21 | 16% |
| COc1ccc(-n2cnnc2SCCC#N)cc1 | -7% |

Remaining list, next part
| structure | VDR inh |
| --- | --- |
| CCC(C)NS(=O)(=O)c1ccc(OCC(=O)NCc2ccco2)cc1 (stereo not given) | -13% |
| Cc1ccc(/C=C/C(=O)OCC(=O)NCc2cccs2)o1 | -8% |
| Cc1nc(SCc2nc3ccc(Cl)cc3[nH]2)c2oc3ccccc3c2n1 | 1% |
| C/C(=N\OC(=O)c1ccc(F)cc1)c1ccc(F)c(F)c1 | -15% |
| CC(NC(=O)c1ccc2c(c1)sc1nc(-c3ccc(F)cc3)cn12)C12CC3CC(CC(C3)C1)C2 (stereo not given) | 10% |
| Cc1nc(N2CCN(C(=O)c3ccco3)CC2)c2c3c(sc2n1)CCCC3 | -5% |
| C/C(Cn1ncc(N2CCOCC2)c(Cl)c1=O)=N\O | -12% |
| COc1ccccc1CN1CCC(n2nccc2NC(=O)c2ccccc2Cl)CC1 | 6% |
| O=c1c(-c2cc(F)cc(F)c2)nc2cncnc2n1Cc1ccc(F)cc1 | -13% |
| Cc1ccc(NCc2ccccc2OCc2ccccc2F)cc1 | 12% |
| C[C@@H](C(O)c1ccccc1)N(C)C(=O)CCc1ccccc1 (stereo not given in full) | 0% |
| CCCCCOc1ccc(C2c3c(oc4ccccc4c3=O)C(=O)N2c2nc(C)c(C)s2)cc1OCC (stereo not given) | -8% |
| COc1ccc(NC(=O)COC(=O)c2cc([N+](=O)[O-])ccc2N2CCOCC2)cc1 | -5% |
| CCc1ccc(C(C)NC(=O)/C(C#N)=C\c2cn[nH]c2-c2ccccc2)cc1 (stereo not given) | 7% |
| O=C(Cn1cnc2ccccc2c1=O)Nc1nc2ccccc2s1 | -8% |
| COC(C[C@H]1O[C@@H]1[C@H](O)COCc1ccccc1)OC | -6% |
| COC(=O)CC1Oc2ccccc2N(Cc2ccc(C)cc2)C1=O (stereo not given) | 2% |
| COc1ccc(-n2nc(C(=O)NCC(=O)N(C)Cc3ccccc3)c3ccccc3c2=O)c(OC)c1 | -17% |
| COc1ccc(C(=O)N2CCc3[nH]nc(-c4ccccc4)c3C2)cc1 | -3% |
| Cc1nnsc1C(=O)NC1CCCc2c1cnn2-c1cc(F)cc(F)c1 (stereo not given) | 8% |
| Cc1ccc(S(=O)(=O)N(c2cccc(C(F)(F)F)c2)C2C=CS(=O)(=O)C2)cc1 (stereo not given) | -5% |
| O=c1[nH]c(=O)n(C(c2ccccc2)c2ccccc2)cc1Br | -26% |
| CCOc1ccc(CN2CCN(Cc3ccsc3)C(CCO)C2)cc1CO (stereo not given) | 19% |
| COc1cc(/C=C2\SC(=O)N(CC(=O)Nc3ccc(C)cc3)C2=O)cc(Cl)c1OCC(=O)O | ? |
| Cc1cc(N2C(=O)C(O)=C(C(=O)c3cc4ccccc4o3)C2c2cccc(Br)c2)no1 (stereo not given) | ? |
| O=C1NC(=O)N(Cc2ccccc2)C1=O | -7% |
| COc1ccc(NC(=S)NNC(=S)Nc2cccc(C(F)(F)F)c2)cc1 | ? |
| COCCOC(=O)c1c(C)n(C)c2ccc(OC(=O)c3ccco3)cc12 | 6% |
| CCn1c(SCC(=O)Nc2ccccc2C(=O)OC)nc2ccsc2c1=O | 13% |
